# Bioassay records (PubChem)
# YopH inh = blocks Yersinia enterocolitica YopH tyrosine phosphatase; fluorescence Ex485/Em525; inhibition, %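 (about 10 µM by stock and volumes)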; 140,000 compounds, 0.16% hits; AID 898;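 active = inhibition of 50% or more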;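 note: controls were vehicle for no effect and minimum signal wells for full effect; inactives centre near -20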
# Mtb bLac sens = beta-lactam sensitization of Mtb H37Rv; 330,000 compounds, 0.27% hits; inhibition, % at 25 µM; AID 434955; M. tuberculosis H37Rv growth with meropenem, percent inhibition; hits of this screen are not shown here;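 active = about 74% or more and at least 40 points above the plate without the antibiotic, then above 30% in a dose series; inconclusive = first-round hits that could not be retested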;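 note: growth measured after seven days incubation then overnight dye step; 0% = bacteria only wells and 100% = bacteria with antibiotic; twin plates without the antibiotic show which effects depend on it; some results filed as inactive read as strong as hits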
# RecA splice inh = blocks M. tuberculosis RecA intein splicing; P9WHJ3; cell-free RecA intein splicing, fluorescence; inhibition, %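 (about 9 µM by stock and volumes)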; 290,000 compounds, 0.75% hits; AID 2221; in the data active = inhibition above about 30%; inconclusive = no clear call, values can overlap the other calls;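 note: 0% = vehicle wells and 100% = reference inhibitor control wells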
# Target sequence (P9WHJ3 whole entry, looked up, canonical isoform): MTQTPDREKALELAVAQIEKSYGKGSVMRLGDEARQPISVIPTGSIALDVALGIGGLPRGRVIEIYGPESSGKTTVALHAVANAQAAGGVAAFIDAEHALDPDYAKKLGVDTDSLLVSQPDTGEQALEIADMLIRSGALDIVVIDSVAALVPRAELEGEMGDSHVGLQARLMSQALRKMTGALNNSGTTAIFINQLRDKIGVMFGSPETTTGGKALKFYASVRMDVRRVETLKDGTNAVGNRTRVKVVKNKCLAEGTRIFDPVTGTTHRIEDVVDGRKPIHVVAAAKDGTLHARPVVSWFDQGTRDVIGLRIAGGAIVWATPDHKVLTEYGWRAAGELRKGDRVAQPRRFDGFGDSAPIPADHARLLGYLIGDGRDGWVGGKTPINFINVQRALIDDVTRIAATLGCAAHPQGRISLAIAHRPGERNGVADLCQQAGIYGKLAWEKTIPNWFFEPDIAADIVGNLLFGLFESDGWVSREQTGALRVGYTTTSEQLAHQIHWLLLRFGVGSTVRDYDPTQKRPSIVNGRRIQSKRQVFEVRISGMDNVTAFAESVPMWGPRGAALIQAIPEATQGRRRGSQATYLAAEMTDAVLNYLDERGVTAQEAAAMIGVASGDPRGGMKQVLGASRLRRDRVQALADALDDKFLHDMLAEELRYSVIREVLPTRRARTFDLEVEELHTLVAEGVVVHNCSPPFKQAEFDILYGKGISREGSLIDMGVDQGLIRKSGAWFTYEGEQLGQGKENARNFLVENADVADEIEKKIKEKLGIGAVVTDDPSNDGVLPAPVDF
# Arbovirus inh = blocks arbovirus infection. arbovirus infection cell-based antiviral screen. inhibition, % at 10 µM. 200,000 compounds, 0.37% hits;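 active = inhibition from about 30%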;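 note: bluetongue infection of BSR cells; cell survival read as ATP light after 72 h; 0% = infected wells without compound and 100% = uninfected wells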
# Mtb growth = M. tuberculosis H37Rv growth inhibitors, H37Rv strain (AID 1626) | M. tuberculosis H37Rv growth inhibition; higher % means a stronger effect | 220,000 compounds, 0.95% hits | one-dose inhibition, % at 10 µM; IC50 in µM for titrated hits;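 active = confirmed in a dose series; inconclusive = inhibition above 80% but not taken into the dose series; inactive = below 80% or under 30% at every dose of the series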;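 note: bacteria incubated seven days before Alamar blue readout; 0% = bacteria only wells and 100% = bacteria with antibiotic wells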
# Arbovirus inh repeat = also measured in Arbovirus inh; calls as there; inhibition, %; measured here: 10K subset replicate screen; many hits read low in the repeat;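 first of two repeat runs on a subset; 0% = infected and 100% = uninfected wells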
# * = called active by the depositor; ? = inconclusive; nt = not tested or not shown. These rows are one share of the data (hit frequency here may not be typical).
SMILES,YopH inh,Mtb bLac sens,RecA splice inh,Arbovirus inh,Mtb growth,others
Cc1nc(NC(=S)NC(=O)COc2ccc(Cl)cc2)ccc1Br,-29,89,-1.9,3,28%,
Cn1ccnc1P(=S)(c1nccn1C)N1CCOCC1,-38,-7,-0.3,3,4%,
O=C(c1cccn2c(=O)c3ccccc3nc12)N1CCN(c2ccccn2)CC1,-34,-4,-12,1,6%,
Cc1ccc(N(C(=O)C2CCCC2)C2C=CS(=O)(=O)C2)cc1C (stereo not given),-28,-7,0.6,-1,-4%,
COCCn1cnc2c1c(=O)n(Cc1cc(C(C)=O)ccc1OC)c(=O)n2Cc1ccccc1,nt,1,-1.8,nt,nt,
Cc1ccc2occ(/C=N/NC(=O)c3ccc(Cl)cc3)c(=O)c2c1,nt,8,-3.5,nt,nt,
CC(=O)N1CCOc2ccc(S(=O)(=O)NCc3ccc(F)cc3)cc21,nt,-2,-1.4,nt,nt,
CC(C)(C)OC(=O)N1CCC(Cc2cc(-c3cccc(Br)c3)no2)(C(=O)O)CC1,nt,8,17,nt,nt,
CC(=O)N1N=C(c2ccc(Cl)cc2)OC1c1ccc(C(C)C)cc1 (stereo not given),-18,-11,22,6,-9%,
O=C(Cn1cnc2ccccc21)NC(c1ccccc1)c1ccccc1,-145,-3,1.9,4,-8%,
Cc1cc(C(=O)N/N=C/c2cccc(Cl)c2Cl)no1,-5,-2,-6.6,1,-10%,
O=C(C/C=N\OCc1ccc([N+](=O)[O-])cc1)Nc1ccc(Br)cc1,nt,22,nt,-1,?,

# The last two entries of the part above are carried over, then new ones follow:
SMILES,YopH inh,Mtb bLac sens,RecA splice inh,Arbovirus inh,Mtb growth,others
Cc1cc(C(=O)N/N=C/c2cccc(Cl)c2Cl)no1,-5,-2,-6.6,1,-10%,
O=C(C/C=N\OCc1ccc([N+](=O)[O-])cc1)Nc1ccc(Br)cc1,nt,22,nt,-1,?,
CCOC(=O)N1CCC(NC(=O)c2ccc3c(Cl)c4c(nc3c2)CCCC4)CC1,-22,6,nt,-4,15%,
COc1ccccc1CNC(=O)CCC(=O)Nc1nnc(C(C)C)s1,-11,2,2.1,-3,-3%,
Cc1ccc(CNC(=O)C(c2ccccc2)c2ccccc2)cc1,nt,11,2.3,nt,nt,
CCc1ccccc1NC(=O)c1ccc(NS(C)(=O)=O)cc1,nt,-4,0.4,2,2%,
CC(C)OP(=O)(OC(C)C)C1(NS(=O)(=O)c2ccc(Cl)cc2)C=C(Cl)C(=O)C(Cl)=C1,nt,-7,-0.2,nt,nt,
COc1ccccc1NC(=O)Cn1cnc2c(nc3n2CCCCC3)c1=O,nt,6,-3.3,nt,nt,
O=C(CSc1nncc(=O)[nH]1)NCc1ccccc1,nt,2,-1.0,0,0%,
CCc1ccc2nc(N3CCN(C)CC3)c(C#N)cc2c1,2,0,-6.1,-12,-10%,
Cc1ccc(NC(=O)Cn2cc(S(=O)(=O)c3ccc(F)cc3)c(=O)c3cc(F)ccc32)cc1,-30,7,0.2,-12,nt,
Cc1cccc(CSc2nnc(NC(=O)c3ccco3)s2)c1,-13,-3,-0.9,21,-5%,
O=c1cc(-c2cc3ccccc3o2)c2cc(O)ccc2o1,nt,?,-1.2,nt,nt,
O=[N+]([O-])c1cccc(-c2nc(Oc3ccc(Cl)cc3)c3ccccc3n2)c1,-25,2,0.4,-2,0%,
Cc1cccc(NC(=O)CN2C(=O)N/C(=C/c3ccc(-c4cccc(C(=O)O)c4C)o3)C2=O)c1,nt,0,-5.0,3,5%,
Cc1ccc(S(=O)(=O)CC(=O)Nc2nc3ccc(S(N)(=O)=O)cc3s2)cc1,nt,7,0.6,nt,nt,
O=C(Cn1cc(C(F)(F)F)ccc1=O)NC(c1ccccc1)c1ccccc1,-24,4,-0.5,-3,1%,
C=CCNC(=O)c1ccccc1NC(=O)c1ccccc1C,41,-6,-4.4,-9,6%,
COc1ccc(NCC(=O)N/N=C/C(C)c2ccccc2)cc1 (stereo not given),nt,75,-1.1,-4,3%,
COc1cc(C)nc2nc(SCc3ccccc3)nn12,-18,-6,1.3,5,nt,
COc1cc(OC)c(OC)cc1CCC(C)NC(=O)Cc1ccccc1 (stereo not given),nt,-3,-0.8,nt,nt,
COc1ccccc1CN1CCNC(=O)C1CC(=O)NC1Cc2ccccc2C1 (stereo not given),nt,0,3.3,6,-4%,
Cc1cc(NC(=O)c2cc3nc(C4CC4)cc(C(F)(F)F)n3n2)no1,-4,-6,0.6,2,-7%,
CC(C)(C)c1ccc(C(CC(=O)O)NC(=O)CCCc2ccccc2)cc1 (stereo not given),nt,-1,-4.0,6,-6%,
CC(C)OC(=O)CSc1n[nH]c(-c2cccnc2)n1,-51,-7,3.6,17,-6%,
CC(C)Sc1nc2ccccc2c(=O)[nH]1,-23,4,nt,2,-5%,
CN(C)C(=O)CCSc1nnc(-c2ccco2)o1,nt,8,1.1,13,6%,
Cc1cccc(C)c1NC(=O)CSc1nnc(-c2cnccn2)n1C,nt,7,-0.8,nt,nt,
COC(=O)c1ccc(C)c(NC(=O)CN2C(=O)c3ccccc3S2(=O)=O)c1,-16,2,-1.1,4,-4%,
Cc1cccc(N2CC(c3nc4ccccc4n3C)CC2=O)c1C (stereo not given),-26,-3,1.6,3,58%,Arbovirus inh repeat=1
CC(=O)Nc1ccc(S(=O)(=O)n2cnc(C)c2)cc1,-51,-2,0.0,-3,-10%,
CCc1ccc2c(CN3CC=C(c4ccccc4)CC3)cc(=O)oc2c1,-11,2,-5.8,0,7%,
O=C(Nc1ccccc1)Nc1cccc2nsnc12,nt,54,-9.3,-1,40%,
O=C(Nc1ccc2c(c1)OCO2)C(c1ccccc1)N1CCC2(CC1)OCCO2 (stereo not given),-39,-5,-0.5,-2,6%,
CCOC(=O)c1c(NC(=S)Nc2ccc(OC)cc2)sc2c1CCC2,-19,-2,-0.7,-9,-4%,
CC(C)(C)Nc1nc(Cl)nc(N(C#N)CN2C(=O)c3ccccc3S2(=O)=O)n1,nt,3,51*,4,-7%,
Cc1cc(C)cc(N(CC(=O)O)S(=O)(=O)c2c(C)noc2C)c1,-19,8,2.5,0,-15%,
Cc1ccc(CN2C3=NC(=O)CN3c3ccccc32)cc1,-24,0,-0.4,6,1%,
CCOC(=O)C1C(c2ccc(O)c(OC)c2)NC(=O)NC1(O)C(F)(F)F (stereo not given),nt,7,-2.9,nt,nt,
O=C1C(=O)N(Cc2cccs2)c2ccccc21,nt,8,-1.9,nt,nt,
O=C(NCc1nc2ccccc2[nH]1)c1cc2ccccc2oc1=O,-22,-7,-4.4,17,-6%,
Cc1cc(C)nc(SCc2nnc(SCC(N)=O)o2)n1,nt,1,-3.4,9,3%,
C=CCn1c(SCCOc2ccc(OC)cc2)nnc1C(C)NC(=O)Cc1ccc(OC)cc1 (stereo not given),-14,-4,nt,3,-6%,
CCO[C@H]1OC(C(=O)N2CCN(Cc3ccccc3)CC2)=C[C@@H](c2ccc(C(F)(F)F)cc2)[C@@H]1CCCO,nt,-1,0.3,-4,2%,
Nn1c(Cc2ccccc2)nc2sc3c(c2c1=O)CCC3,nt,-8,0.6,nt,2%,
Cc1c(SCCO)c(=O)[nH]c2cc3c(cc12)OCO3,-21,8,nt,5,-7%,
Cn1cc(C(=O)C(F)(F)F)c2ccccc21,-33,-3,0.9,-2,-7%,
CC(C)OC(=O)Nc1ccc2c(c1)N(C(=O)N1CCN(C)CC1)c1ccccc1CC2,nt,-12,-26,nt,1%,
Nc1cc(OCC(F)(F)F)cc([N+](=O)[O-])c1,-6,8,-3.4,1,-4%,
Cc1ccc2nc(C3CCN(C(=O)NCc4ccccc4)CC3)[nH]c2c1,11,1,-0.8,-7,-1%,

# Quoted from the results shown (13 entries):
SMILES,YopH inh,Mtb bLac sens,RecA splice inh,Arbovirus inh,Mtb growth,others
CCOC(=O)N1CCC(NC(=O)c2ccc3c(Cl)c4c(nc3c2)CCCC4)CC1,-22,6,nt,-4,15%,
COc1ccccc1CNC(=O)CCC(=O)Nc1nnc(C(C)C)s1,-11,2,2.1,-3,-3%,
Cc1ccc(CNC(=O)C(c2ccccc2)c2ccccc2)cc1,nt,11,2.3,nt,nt,
CCc1ccccc1NC(=O)c1ccc(NS(C)(=O)=O)cc1,nt,-4,0.4,2,2%,
CC(C)OP(=O)(OC(C)C)C1(NS(=O)(=O)c2ccc(Cl)cc2)C=C(Cl)C(=O)C(Cl)=C1,nt,-7,-0.2,nt,nt,
COc1ccccc1NC(=O)Cn1cnc2c(nc3n2CCCCC3)c1=O,nt,6,-3.3,nt,nt,
O=C(CSc1nncc(=O)[nH]1)NCc1ccccc1,nt,2,-1.0,0,0%,
CCc1ccc2nc(N3CCN(C)CC3)c(C#N)cc2c1,2,0,-6.1,-12,-10%,
Cc1ccc(NC(=O)Cn2cc(S(=O)(=O)c3ccc(F)cc3)c(=O)c3cc(F)ccc32)cc1,-30,7,0.2,-12,nt,
Cc1cccc(CSc2nnc(NC(=O)c3ccco3)s2)c1,-13,-3,-0.9,21,-5%,
O=c1cc(-c2cc3ccccc3o2)c2cc(O)ccc2o1,nt,?,-1.2,nt,nt,
O=[N+]([O-])c1cccc(-c2nc(Oc3ccc(Cl)cc3)c3ccccc3n2)c1,-25,2,0.4,-2,0%,
Cc1cccc(NC(=O)CN2C(=O)N/C(=C/c3ccc(-c4cccc(C(=O)O)c4C)o3)C2=O)c1,nt,0,-5.0,3,5%,

# (listing goes on)
SMILES,YopH inh,Mtb bLac sens,RecA splice inh,Arbovirus inh,Mtb growth,others
COc1ccc(NC(=O)Cn2c(=O)n(CC3CCCO3)c(=O)c3cc(OC)c(OC)cc32)cc1OC (stereo not given),nt,-2,0.1,nt,nt,
COC(=O)c1c(C(C)=O)c(C)n(C)c1C,nt,-4,1.9,nt,-14%,
Cn1cccc1C1Nc2ccccc2NC2=C1C(=O)CC(C)(C)C2 (stereo not given),-22,-7,-5.6,9,4%,
O=C(O)CSc1nnc(-c2ccc(Cl)cc2)n1-c1ccccc1,nt,-5,-6.0,nt,nt,
CCC/C(=N/NC(=O)c1nnn(-c2nonc2N)c1CN1CCCCC1)c1ccccc1,nt,-5,-1.2,nt,nt,
COCC(=O)n1nc(-c2ccccc2)nc1NCc1ccc(F)cc1,-39,7,-11,2,4%,
CCOC(=O)CSc1nc2c(c(=O)n(Cc3ccccc3Cl)c(=O)n2C)n1C,9,98,nt,-1,-3%,
CCN1CCCC1CNC(=O)c1ccc2c(c1)NC(=O)/C(=C\c1ccc(C)cc1)S2 (stereo not given),nt,72,4.4,nt,nt,
O=C(N/N=C/c1c[nH]c2ccc(Br)cc12)c1ccc2c(c1)OCO2,nt,0,9.2,-17,4%,
Cc1cccc(N(C(=O)c2ccc(CN3CCOCC3)o2)C(C(=O)NC(C)(C)C)c2ccc(F)cc2)c1 (stereo not given),-1,-9,3.8,-1,-1%,
O=C(NCCc1nc(-c2ccccc2)no1)c1ccco1,nt,-6,0.5,nt,-3%,
CCOc1cc(-c2nn3cnnc3s2)cc(OCC)c1OCC,-34,0,-59,2,-11%,
CCOC(=O)c1c(NC(=O)CSc2nnc(-c3ccco3)o2)sc(C(C)=O)c1C,-6,13,nt,-3,-4%,
Cc1[nH]n(-c2ccccc2)c(=O)c1/C=N/N1CCOCC1,nt,-3,46*,nt,0%,
O=C(O)c1cccc(Nc2nc(-c3cccnc3)nc3ccccc23)c1,-37,4,-2.7,-10,2%,
S=C(NC12CC3CC(CC(C3)C1)C2)N1CCOCC1,nt,0,0.6,0,-5%,
CC(=O)/C(=N/Nc1cccc(Cl)c1)Sc1nnc(C(O)c2ccccc2)n1-c1ccccc1 (stereo not given),-27,2,4.2,47*,8%,
CCOc1cc(-c2nnc(-c3ccco3)o2)cc(OCC)c1OCC,-34,10,-2.1,2,3%,
O=C(O)c1ccccc1NS(=O)(=O)c1ccc(NNC(=S)Nc2ccc(OC(F)F)cc2)c([N+](=O)[O-])c1,nt,nt,15,26,-3%,
CCN(CC)CCOc1cc2c(nn1)Oc1ccccc1N2C,-55,2,-4.4,-16,2%,
O=C(Nc1nccs1)c1cccnc1Cl,nt,3,-0.2,nt,nt,
COC(=O)C1=CN(Cc2ccc(OC)cc2)C=C(C(=O)OC)C1c1ccsc1,nt,-5,-99,-5,-10%,
CC(=O)Nc1ccccc1P(=O)(c1ccccc1)c1ccccc1OC(C)=O (stereo not given),nt,-2,4.8,nt,-7%,
O=C1C(=C2CCCCC2)SC(=S)N1Cc1ccco1,3,-1,nt,10,-13%,Arbovirus inh repeat=0
CCCCC(OC(=O)CN1C(=O)COc2ccccc21)C(=O)NC1CCCCC1 (stereo not given),nt,-4,-4.9,nt,nt,
Cc1ccc(-c2nc(CS(=O)CC(=O)NCCCN3CC(C)CC(C)C3)c(C)o2)cc1 (stereo not given),nt,-3,-1.0,-4,-4%,Arbovirus inh repeat=-3
COc1ccc(NC(=O)CN2C(=O)CC(C)S(=O)(=O)c3ccccc32)cc1 (stereo not given),nt,1,2.8,nt,nt,
